YopH PTP inh – YopH (Yersinia) phosphatase inhibition; inhibition, %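 (about 10 µM by stock and volumes)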; fluorescence Ex485/Em525; AID 898; 140,000 tested, 0.16% active;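 active = inhibition of 50% or more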;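 also: controls were vehicle for no effect and minimum signal wells for full effect; inactives centre near -20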
Mtb betalactam – beta-lactam sensitization of Mtb H37Rv | M. tuberculosis H37Rv growth with meropenem, percent inhibition; hits of this screen are not shown here | inhibition, % at 25 µM | 330,000 tested, 0.27% active | AID 434955;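 active = about 74% or more and at least 40 points above the plate without the antibiotic, then above 30% in a dose series; inconclusive = first-round hits that could not be retested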;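 also: growth measured after seven days incubation then overnight dye step; 0% = bacteria only wells and 100% = bacteria with antibiotic; twin plates without the antibiotic show which effects depend on it; some results filed as inactive read as strong as hits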
Mtb growth – M. tuberculosis H37Rv growth inhibitors, H37Rv strain (AID 1626) | M. tuberculosis H37Rv growth inhibition; higher % means a stronger effect | one-dose inhibition, % at 10 µM; IC50 in µM for titrated hits | 220,000 tested, 0.95% active;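 active = confirmed in a dose series; inconclusive = inhibition above 80% but not taken into the dose series; inactive = below 80% or under 30% at every dose of the series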;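 also: bacteria incubated seven days before Alamar blue readout; 0% = bacteria only wells and 100% = bacteria with antibiotic wells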
RecA splice inh – Mtb RecA intein splicing inhibition; P9WHJ3; cell-free RecA intein splicing, fluorescence; inhibition, %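 (about 9 µM by stock and volumes)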; 290,000 tested, 0.75% active; AID 2221; in the data active = inhibition above about 30%; inconclusive = no clear call, values can overlap the other calls;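 also: 0% = vehicle wells and 100% = reference inhibitor control wells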
Target sequence (P9WHJ3 whole entry, looked up, canonical isoform): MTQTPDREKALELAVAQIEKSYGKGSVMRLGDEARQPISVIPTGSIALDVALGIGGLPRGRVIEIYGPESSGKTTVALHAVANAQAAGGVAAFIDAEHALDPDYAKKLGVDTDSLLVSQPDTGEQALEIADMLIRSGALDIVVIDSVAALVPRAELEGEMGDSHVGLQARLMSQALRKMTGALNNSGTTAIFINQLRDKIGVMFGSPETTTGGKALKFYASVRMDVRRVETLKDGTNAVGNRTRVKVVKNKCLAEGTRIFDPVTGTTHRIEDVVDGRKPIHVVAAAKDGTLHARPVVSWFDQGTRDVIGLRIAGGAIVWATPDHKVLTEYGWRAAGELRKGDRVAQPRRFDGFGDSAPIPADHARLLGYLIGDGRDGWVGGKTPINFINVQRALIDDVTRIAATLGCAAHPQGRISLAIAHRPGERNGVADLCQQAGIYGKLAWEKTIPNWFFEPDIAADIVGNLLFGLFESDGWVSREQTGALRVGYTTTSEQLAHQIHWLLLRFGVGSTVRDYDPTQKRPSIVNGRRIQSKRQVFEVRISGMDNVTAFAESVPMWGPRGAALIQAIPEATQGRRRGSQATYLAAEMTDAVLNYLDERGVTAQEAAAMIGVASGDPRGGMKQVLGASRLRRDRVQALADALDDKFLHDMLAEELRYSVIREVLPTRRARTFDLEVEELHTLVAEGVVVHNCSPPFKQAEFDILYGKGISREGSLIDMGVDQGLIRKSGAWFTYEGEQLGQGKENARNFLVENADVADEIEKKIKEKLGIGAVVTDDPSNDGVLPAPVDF
Arbovirus anti – blocks arbovirus infection | 200,000 tested, 0.37% active | arbovirus infection cell-based antiviral screen | inhibition, % at 10 µM | AID 1251;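 active = inhibition from about 30%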;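 also: bluetongue infection of BSR cells; cell survival read as ATP light after 72 h; 0% = infected wells without compound and 100% = uninfected wells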
Arbovirus anti repeat – also measured in Arbovirus anti; calls as there; inhibition, %; measured here: 10K subset replicate screen; many hits read low in the repeat;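 first of two repeat runs on a subset; 0% = infected and 100% = uninfected wells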
The depositor's hits bear a star; ? = inconclusive; · = not tested or not shown. This is a subset. The share of hits here may be higher or lower than overall.

SMILES	YopH PTP inh	Mtb betalactam	Mtb growth	RecA splice inh	Arbovirus anti	others
Cn1c(=O)[nH]c(=O)c2c1nc(Br)n2CC(O)c1ccccc1 (centres undefined)	-22.2	8.5	-3.0%	2.3	-2.4
CC(=O)C(Sc1nc(N(C)C)nc(N(C)C)n1)C(=O)Nc1ccccc1 (centres undefined)	·	2.6	5.3%	-0.1	-2.5
CC(=O)/C=C1\SC(CC(=O)O)C(=O)N1c1ccccc1 (centres undefined)	-38.1	-2.3	-6.2%	0.7	6.8
Cc1cc(C)c(S(=O)(=O)N2CCCCC2)cc1N(C)S(=O)(=O)c1ccc(Cl)cc1	-18.5	-4.3	-1.8%	-1.2	-5.4
COc1ccc(-n2c(C)cc(/C=C3\SC(=O)NC3=O)c2C)cc1	·	0.2	·	2.7	·
C/C(=N/NC(=O)CN(c1ccccc1)S(=O)(=O)c1ccccc1)c1ccccc1O	·	7.0	·	10.8	·
CCC(C)Sc1ccc([C@H]2N[C@@](C)(C(=O)OC)[C@H]3C(=O)N(C)C(=O)[C@@H]23)cc1OC (some centres undefined)	·	-4.0	·	1.5	·
CN(c1ccccc1)c1nc(-n2ccnc2)nc(-n2ccnc2)n1	-17.9	10.7	·	-2.7	-2.4
COc1cccc(N2CN(CCc3ccccc3)CNC2=S)c1	·	-8.1	-11.6%	0.6	·
C=CCN1C(=O)c2ccc(C(=O)N(CC(C)C)c3c(N)n(CCCC)c(=O)[nH]c3=O)cc2C1=O	·	-9.8	·	-1.3	·
S=c1[nH]nc(C2CCCCC2)n1/N=C/c1ccccn1	·	6.7	9.4%	2.1	1.6
C=CCn1c(N)cc(=O)nc1SCC(=O)Nc1ccc(C)cc1	·	-7.7	1.9%	1.4	-0.2
C#CCNC(=O)C1=C[C@H](C)[C@@H](CCCO)[C@H](OCC)O1	·	-5.0	9.3%	-0.5	4.4
COc1ccc(-n2c(Cn3c(=O)sc4ccccc43)nnc2SC)cc1	-40.9	-2.6	1.6%	0.2	-3.3	Arbovirus anti repeat=-2.2
C=CCOc1ccc(C2=NOC(C(=O)Nc3ccc4c(c3)OCCO4)C2)cc1 (centres undefined)	·	93.9	·	-1.4	·
COc1cccc(NC(=S)N(Cc2ccccn2)Cc2ccccc2Cl)c1	·	3.8	8.5%	9.2	5.5
O=C(Nc1nnc(SCc2ccc(Cl)cc2)s1)C1CC(=O)N(Cc2ccccc2)C1 (centres undefined)	-13.6	1.1	0.0%	-0.2	-1.5
COc1cn(-c2ccccc2)nc1C(=O)NCc1ccc(C)cc1	·	-1.8	·	1.7	·
CN(C)CCNC(=O)Cn1c(=O)c2cccn2c2ccc(F)cc21	·	8.2	·	-1.2	·
COc1ccc(CNC(=O)Cc2c(C(=O)O)[nH]c3ccccc23)c(OC)c1	·	4.9	·	-0.5	·
O=C(CN1CCN(c2cccc(Cl)c2)CC1)NC1CCCc2ccccc21 (centres undefined)	·	13.0	·	16.4	·
Cc1cccn2c(=O)c3cc(C#N)c(=NC(=O)c4cccs4)n(CC(C)C)c3nc12	·	-9.1	-6.5%	-80.8	·
COc1ccc(/C=C2/Sc3ccc(C(=O)NCCN4CCCCCC4)cc3NC2=O)cc1	·	97.9	·	0.9	·
CCN(C#N)c1nc(N(C)C)nc(N(C)C)n1	-37.6	-0.9	4.2%	-4.0	-0.4
CN(CCOc1ccccc1)C(=O)c1cc(S(=O)(=O)N2CCCCC2)ccc1Cl	·	1.2	·	3.0	·
CC(=O)NS(=O)(=O)c1ccc(NC(=O)COc2ccc(C(=O)c3ccccc3)cc2)cc1	-14.8	3.3	-3.5%	2.2	-9.5
Cc1nn(C)c(Oc2cccc(Cl)c2)c1C(=O)Nc1ccc(F)cc1	-48.5	1.7	1.6%	-0.9	-4.3
CCC(=O)c1cc(F)c(N2CCN(C(=O)Cc3ccccc3)CC2)cc1C	-19.9	-6.3	10.6%	4.6	14.1
O=C(CCCC(=O)OCC(=O)c1ccc(Cl)cc1)NC1CCCCC1	·	?	·	1.1	·
CC1=C(C(=O)N2CCN(c3cc(C)ccc3C)CC2)C2(CCC(C)CC2)OC1=O (centres undefined)	-30.1	·	3.9%	·	2.1
CON1C(=O)C(=O)N(OC)C(C)(C)C1C (centres undefined)	-28.1	-3.5	-11.4%	-1.5	1.6
COc1ccc(S(=O)(=O)N2CCCCCC2)cc1C(=O)N1CCCCC1	·	-11.5	·	-1.0	·
O=C(CN1CCOCC1)Nc1ccccc1C(=O)Nc1ccccc1	·	4.2	·	0.0	·
CCn1c(=O)c(=O)[nH]c2cc(C(=O)NC3CCCc4ccccc43)ccc21 (centres undefined)	-39.0	8.6	-4.2%	·	-12.7	Arbovirus anti repeat=-17.7
CC(C)n1nnnc1SCC(=O)c1ccc2c(c1)OCCO2	-99.7	9.4	2.8%	-1.4	4.6
Cc1nn(CCCC(=O)Nc2ccc(Br)cc2F)c(C)c1[N+](=O)[O-]	·	-4.5	·	0.5	9.7
COc1cc(CN(C(=O)c2cc3ccccc3oc2=O)C2CCS(=O)(=O)C2)cc(OC)c1OC (centres undefined)	·	-4.6	·	1.2	·
CCCC(=O)Nc1cc(C(=O)N(C)CC(OC)OC)ccc1S(=O)(=O)c1ccc(C)cc1	·	-16.4	·	-2.8	·
O=C(NCc1ccco1)/C(=C\c1cccnc1)NC(=O)c1ccccc1F	2.9	1.3	-7.4%	-6.1	4.2
CN1C(=O)/C(=N\OC(=O)c2ccccc2Cl)c2ccccc21	·	-0.9	4.8%	16.8	-2.9
C=C[C@]1(C)C[C@H]1[C@H](NP(=O)(c1ccccc1)c1ccccc1)c1ccccc1	-12.8	9.3	-0.4%	·	-6.5
COc1cccc(/C=N/N2CCN(Cc3ccccc3)CC2)c1O	·	0.5	·	-2.3	·
Cc1cccc(C)c1NC(=O)C1(N(Cc2ccco2)C(=O)Cn2nnnc2N)CCCCC1	-33.8	5.8	-1.8%	-1.2	1.8
CCC(NC(=O)C1CCCC1)c1ccccc1 (centres undefined)	·	-6.5	·	-0.9	·
CNC(=S)N1CCN(C(c2ccccc2)c2ccccc2)CC1	·	-3.8	-16.1%	-0.6	-7.7
C/C(=N\NC(=O)COc1ccc(C(C)(C)C)cc1)c1ccccc1	·	-7.9	-2.9%	5.7	1.2
N#C/C(=C\c1ccc2c(c1)OCCO2)C(=O)Nc1nccs1	·	4.6	·	0.0	·
Cc1c(CCC(=O)O)c(=O)oc2cc(OCc3ccccc3F)ccc12	·	-9.3	·	-3.9	·
Cc1ccc(CNC(=O)C2CCC(=O)N(Cc3ccccc3F)C2)s1 (centres undefined)	·	10.1	·	-1.2	·
CNC(=O)c1cc(OCC(F)(F)F)ccc1OCC(F)(F)F	·	-3.2	-0.6%	3.7	4.4

Next part:
SMILES	YopH PTP inh	Mtb betalactam	Mtb growth	RecA splice inh	Arbovirus anti	others
CC(=O)c1c(C)[nH]c(C(=O)Nc2cc(S(=O)(=O)N(C)C)ccc2C)c1C	·	1.2	-7.3%	-2.0	-0.8
FC(F)(F)COc1cc(-c2nnc(SCc3ccccc3)n2Cc2ccco2)cc(OCC(F)(F)F)n1	·	-9.4	3.2%	3.5	·
CCOc1ccc(C(=O)Nc2nccs2)cc1[N+](=O)[O-]	-47.2	8.5	9.5%	·	5.6
CN(C)CCCNC(=S)Nc1ccc(-c2ccccc2)cc1	·	84.3	38.7%	·	·
Cc1ccc(N/C=C(\C#N)c2ccc(OCCCF)cc2)cc1	-8.7	87.6	8.0%	1.6	-3.2
C=CCn1c(SCC(C)=O)nnc1-c1ccc2ncccc2c1	·	-4.7	-1.0%	-0.2	·
CCCNC(=O)Nc1ccc(F)c(Cl)c1	·	-6.2	3.0%	0.7	5.0
CCOc1ccccc1NC(=O)c1cccc(NC(=O)CC(c2ccccc2)c2ccccc2)c1	-28.1	8.5	8.4%	19.2	-16.0
O=C(Oc1ccc2cc(Br)ccc2c1)c1cccnc1	-8.7	97.8	1.38µM*	2.7	-0.6
CCCC1=NN2C(=N)/C(=C\c3ccc(SCc4ccco4)o3)C(=O)N=C2S1	-12.2	-0.9	-4.0%	-0.8	31.9*
CCS(=O)(=O)N1CCCC(C(=O)NCCCN(C)Cc2ccccc2)C1 (centres undefined)	2.1	-14.3	-9.1%	-1.6	-1.6
Cc1cccc(N2CCN(C(=O)c3ccc(NS(=O)(=O)c4c(C)noc4C)cc3)CC2)c1C	-34.5	-1.2	0.1%	5.7	15.8
Cc1cccc(C)c1OCC(=O)N/N=C/c1cc2c(cc1[N+](=O)[O-])OCO2	-11.8	4.7	-5.7%	-0.7	4.2
COC(=O)c1ccc(Nc2nc(-c3ccncc3)nc3ccccc23)cc1	·	1.3	·	-0.9	·
Cc1ccc(S(=O)(=O)NCC(=O)N2CCN(c3ccc(F)cc3)CC2)cc1	·	-6.8	·	-1.8	·
CCCC(C(=O)N(C)CC(=O)Nc1ccc(N2CCOCC2)cc1)c1ccccc1 (centres undefined)	·	2.7	·	-3.6	·
COc1ccc(C)cc1NC(=O)C1COc2ccccc2O1 (centres undefined)	·	11.3	-0.3%	3.5	49.7*
CCOc1ccc(NC(=O)c2ccccc2OCC(=O)c2ccc(C)cc2)cc1	-2.4	-0.6	-6.1%	4.1	-24.1
O=c1cc(-c2ccc(Cl)cc2)[nH][nH]1	-19.9	4.1	0.2%	93.6*	1.3
COc1ccc(OC)c(NC(=O)c2ccccc2N(C)S(=O)(=O)c2ccc(C)cc2)c1	·	3.6	·	5.6	·
COc1ccccc1-c1nc(SCC(=O)Nc2cc(C)on2)c2c(=O)n(C)c(=O)n(C)c2n1	·	-4.0	·	-0.8	·
O=C(Nc1ncccn1)C12CC3CC(CC(C3)C1)C2	·	-3.9	7.0%	0.6	·
COCCN(C(=O)CCC(=O)Nc1ccccn1)C(C(=O)NC(C)(C)C)c1ccc(OC)cc1 (centres undefined)	·	-0.7	·	-1.3	·
O=C(NCc1cccs1)c1csc2ccccc12	21.8	-0.7	15.0%	2.8	-1.1
O=C(CN1C(=O)COc2ccc(Cl)cc21)NCC1CCCO1 (centres undefined)	·	-9.1	·	-3.0	·
COCCn1nnnc1C(c1ccc(Cl)cc1)N1CCSCC1 (centres undefined)	-21.0	0.9	-3.9%	2.0	0.0
CCOC(=O)c1ccccc1NC(=O)CSc1ncc(C(=O)OCC)c(N)n1	-18.4	17.2	6.4%	10.5	9.9

Bioassay records (PubChem)
